# A1 inh = caspase 3/7 activation in MEF A1-2A-BIM cells, primary screen, A1 inhibitor project, cell-based, luminescence, HTS. caspase activation, % (no concentration beside the values). actives 0.066% (n = 330,000). Caspase-Glo 3/7 luminescence, 3 h; percent of clofoctol response, vehicle zero;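 active means over half of replicate activation scores above 10%, or exactly half above 10 with the replicate mean above 10; inconclusive means replicate mean below 10 yet half the replicates above 10; inactive means over half of replicates below 10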;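 further: wells of about 30 µL received 50 nL stock; many hits fall short of the cut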
# LANA-H2A inh = blockers of LANA interaction with H2A/H2B – biochemical, FP readout, HTS, primary screen | Protein LANA1 (Human herpesvirus 8 type P (isolate GK18)), Q9QR71 | cell-free LANA-H2A/H2B peptide, fluorescence polarization | inhibition, % (test concentration not listed) | actives 0.6% (n = 320,000); in the data active means inhibition mostly above about 10%, no sharp cut-off; inactive means mostly below about 6.7%;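 further: stock transfer was 7.5 nL into about 10 µL; 0% = median of vehicle wells and 100% = median of positive control wells; one replicate is shown; the record names a cut of 25% in any replicate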
# Target sequence (Q9QR71 whole entry, looked up): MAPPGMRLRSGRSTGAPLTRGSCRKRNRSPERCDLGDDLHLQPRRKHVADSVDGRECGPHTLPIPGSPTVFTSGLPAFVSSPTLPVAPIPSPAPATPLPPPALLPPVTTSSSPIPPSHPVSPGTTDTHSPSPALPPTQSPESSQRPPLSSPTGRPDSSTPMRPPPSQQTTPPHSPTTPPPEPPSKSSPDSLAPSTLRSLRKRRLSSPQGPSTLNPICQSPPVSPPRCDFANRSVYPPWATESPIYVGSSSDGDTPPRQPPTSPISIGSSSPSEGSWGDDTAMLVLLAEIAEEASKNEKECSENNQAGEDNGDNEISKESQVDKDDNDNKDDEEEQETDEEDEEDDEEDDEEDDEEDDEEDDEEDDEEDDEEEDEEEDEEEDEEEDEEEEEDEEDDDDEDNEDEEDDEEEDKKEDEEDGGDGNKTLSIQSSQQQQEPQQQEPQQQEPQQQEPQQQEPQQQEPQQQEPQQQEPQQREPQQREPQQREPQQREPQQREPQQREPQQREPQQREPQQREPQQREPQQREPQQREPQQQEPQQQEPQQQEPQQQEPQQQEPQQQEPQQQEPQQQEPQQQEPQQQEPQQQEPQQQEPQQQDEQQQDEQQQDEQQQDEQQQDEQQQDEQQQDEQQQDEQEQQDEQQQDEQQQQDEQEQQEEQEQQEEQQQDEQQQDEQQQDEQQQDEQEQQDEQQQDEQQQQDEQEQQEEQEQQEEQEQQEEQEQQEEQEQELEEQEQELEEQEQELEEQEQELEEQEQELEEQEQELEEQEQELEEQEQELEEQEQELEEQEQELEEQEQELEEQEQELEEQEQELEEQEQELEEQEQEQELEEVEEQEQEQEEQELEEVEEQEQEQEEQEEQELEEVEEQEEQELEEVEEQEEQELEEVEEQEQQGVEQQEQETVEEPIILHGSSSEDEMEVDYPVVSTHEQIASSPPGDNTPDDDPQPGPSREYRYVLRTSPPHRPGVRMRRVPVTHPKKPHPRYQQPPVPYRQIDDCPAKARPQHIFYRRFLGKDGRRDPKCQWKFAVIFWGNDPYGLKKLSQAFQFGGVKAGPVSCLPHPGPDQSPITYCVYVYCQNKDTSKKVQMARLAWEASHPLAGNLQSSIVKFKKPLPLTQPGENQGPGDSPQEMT
# Beta2AR agonist = beta2AR agonists driving receptor internalization, primary screen, cell-based, FAP fluorogen, flow cytometry; Beta-2 adrenergic receptor (Homo sapiens), P07550; Am2.2-beta2AR cells; reference of the scale not given here; response, % (test concentration not listed); actives 0.43% (n = 340,000); AID 504454, 2011;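 active means response above a set limit, near 3 SD of response in nonfluorescent compounds, cut at about 42% in these data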;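 further: stock transfer was 100 nL into about 11 µL; a reference agonist was the positive control; negative values mostly stem from fluorescent compounds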
# HNF4A DNA FP = change in binding of human HNF4A to DNA, primary screen, biochemical, fluorescence polarization, FITC-DNA. Hepatocyte nuclear factor 4-alpha (Homo sapiens), P41235. 1 h. activity change, % at 10 µM. actives 0.3% (n = 360,000); in the data active means activity change above about 30%, passing the limit was not always enough;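 further: controls were the assay level and a saturating level of protein; the project sought stronger binding though the title names inhibitors; some compounds called inactive have numbers as strong as hits; positive values seem to mean higher polarization but the record does not say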
# Ecoli growth = E. coli growth inhibition, primary screen, OD600; Escherichia coli growth, 23 h; active compounds read low; OD600 absorbance (concentration not given with the values); actives 0.21% (n = 330,000); AID 1053175, 2014;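 active means OD600 absorbance below the run mean of sample wells minus 3.6 SD, in any replicate, cut at about 0.56 in these data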;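 further: stock transfer was 300 nL into about 60 µL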
# Vif A3G = inhibitors of Vif binding to APOBEC3G peptide, primary screen, biochemical, TR-FRET, GST-Vif 1-94, biotin-A3G peptide, dose response retest (AID 1117319). actives 0.57% (n = 260,000). Virion infectivity factor (Human immunodeficiency virus type 1 group M subtype B (isolate …. inhibition, %; hits with a dose series show IC50 in µM. TR-FRET GST-Vif / biotin-A3G peptide binding; higher % means a stronger effect; test concentration not given here; strong numbers were not always called active;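 active means above the screen mean plus three standard deviations and confirmed in dose response; inconclusive means results disagree or hit not tested in dose response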;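 further: Vif residues 1-94 fused to GST binding biotinylated APOBEC3G peptide 110-148; 0% = full assay without inhibitor and 100% = GST in place of GST-Vif; retest series ran down from 100 µM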
# UCH37 inh = inhibitors of human UCH37 deubiquitinase, primary screen, biochemical, Ub-AMC cleavage, fluorescence; Ubiquitin carboxyl-terminal hydrolase isozyme L5 (Homo sapiens), Q9Y5K5; purified proteasome/UCH37; inhibition, % (no concentration beside the values); actives 0.33% (n = 330,000);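 active means mean of two replicates above 20%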;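 further: 0% = compound-free wells with enzyme and 100% = wells lacking proteasome; stock transfer was 100 nL into about 20 µL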
#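 Material: Human UCH37 enzyme supplied as purified proteasome complex | Schedule: 30 min compound-proteasome preincubation then 25 min substrate reaction, room temperature | Detection: AMC fluorescence from Ub-AMC cleavage, excitation 355 nm, emission 460 nm | Benchmarks: Wells without proteasome as full block, compound-free enzyme plus substrate as uninhibited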
# Starred values were filed as active, the others as inactive; ? = inconclusive; / = no result given.
SMILES,A1 inh,LANA-H2A inh,Beta2AR agonist,HNF4A DNA FP,Ecoli growth,Vif A3G,UCH37 inh
C=CCNC(=O)c1cc2c(=O)c3ccccc3oc2nc1C,-1.0,-0.6,-2.6,-0.6,0.716,-0.8%,-4.3
CCN(c1ccccc1)S(=O)(=O)c1ccc(OC)c(NC(=O)Cc2ccccc2OC)c1,-0.4,0.0,-1.3,5.7,0.683,5.4%,5.2
C=CCn1c(SC)nnc1-c1cccc([N+](=O)[O-])c1,1.2,-1.8,-0.6,2.6,0.677,0.5%,4.0
O=C(Nc1ccc(Br)cc1)c1cccc(NC(=O)C2C3CC4OC(=O)C2C4C3)c1 (stereo unspecified),0.9,-0.4,4.5,-0.4,0.668,29.2%,2.8
Cc1ccc(N2C(=O)c3ccccc3C2(O)c2ccccc2)cc1 (stereo unspecified),/,/,7.1,-2.9,0.683,2.5%,5.9
CCOC(=O)C1CCN(CCC(=O)Nc2ccccc2Cl)CC1,-0.8,-3.4,8.4,5.3,0.709,-7.5%,1.1
COC(=O)c1ccc(COC(=O)c2cccn2C)o1,-5.5,-7.2,-5.0,-2.9,0.7,/,1.4
CCOc1ccc2nc(SCC(=O)NNC(=O)c3ccco3)c(C)cc2c1,0.6,3.7,1.9,4.7,0.713,/,4.1
CCc1ccc(C2c3[nH]c4ccccc4c3CCN2C(=O)c2cc[n+]([O-])cc2)cc1 (stereo unspecified),0.5,-2.7,-8.0,-1.3,0.69,/,6.0
CCN(c1ccc(C)cc1C)S(=O)(=O)c1nnc(NC(=O)C(C)C)s1,-0.4,-1.7,-1.9,-2.6,0.681,0.1%,-1.2
CCOc1cccc(CN2CCCC(C(=O)Nc3cccc(-n4cccn4)c3)C2)c1 (stereo unspecified),0.6,0.6,-13.7,-3.3,0.672,88.7%,1.3
CCCSc1nnc(CNC(=O)C23CC4CC(CC(C4)C2)C3)n1Cc1ccccc1,-0.2,1.8,-11.6,-1.6,0.713,/,3.0
CC(C)CC(=O)NC(=S)NNC(=O)c1cccc([N+](=O)[O-])c1,0.1,3.5,-4.1,-1.3,0.649,-2.4%,3.5
CC(=O)NC(NC(=S)Nc1c(C)n(C)n(-c2ccccc2)c1=O)C(Cl)(Cl)Cl (stereo unspecified),/,/,7.6,0.9,0.689,/,1.1
NS(=O)(=O)c1ccc(CNC(=O)/C=C/c2ccc(Cl)c(Cl)c2)cc1,0.2,-1.5,-1.9,4.5,0.696,17.0%,1.1
CC(C)=C1C2CCC1C(C(=O)Nc1cc(C)cc(C)c1)C2C(=O)O (stereo unspecified),0.1,1.0,2.2,1.8,0.682,3.4%,1.2
Cc1ccc(S(=O)(=O)N2CCCCC2)cc1C(=O)Nc1cccnc1,0.4,0.9,-10.3,-9.8,0.654,/,5.4
CC(=O)Nc1ccc(OC(=O)Oc2ccc(NC(C)=O)cc2)cc1,-0.1,1.0,-2.6,1.7,/,22.8%,/
C=CCNC(=S)N1CCC(C(=O)c2ccc(F)cc2)CC1,0.3,1.8,3.9,-2.1,0.637,/,0.2
CN(Cc1cccc(Cl)c1)C(=O)C1CSC2(C)CCC(=O)N12 (stereo unspecified),-0.2,2.8,-7.6,6.2,0.707,-2.9%,0.7
Cc1ccc(N2CC(C(=O)Nc3ccccn3)CC2=O)cc1 (stereo unspecified),0.3,-2.0,6.0,2.4,0.719,-6.8%,3.9
Cc1cccc(N2C(=O)CC(N3CCN(c4ccc(Cl)cc4)CC3)C2=O)c1 (stereo unspecified),0.9,-1.8,2.3,-1.9,0.708,/,6.5
CC(Sc1nnc2c(n1)[nH]c1ccccc12)C(=O)N(C)C1CCCCC1 (stereo unspecified),-0.8,1.9,-11.4,3.5,0.719,/,2.4
Nc1ncnc2c1ncn2[C@@H]1O[C@H](CNCc2ccc(OCC(=O)Nc3nccs3)cc2)[C@@H](O)[C@H]1O,1.7,-0.2,-11.2,-2.0,0.699,1.4%,4.4
O=C(COc1cccc(NC(=O)c2ccccc2)c1)c1ccccc1,-3.9,-5.9,-9.4,4.5,0.679,-0.3%,4.0
Cc1c(Cl)cccc1N1CC(C(=O)Nc2nccs2)CC1=O (stereo unspecified),0.2,1.7,-2.7,2.9,0.712,-9.9%,2.5
O=C(c1ccccc1)C1CCN(C(=O)Nc2ccccc2)CC1,0.3,-1.5,0.5,-1.1,0.665,/,2.9
Cc1ccc(-c2nc(NC(=O)CSc3ccc4ccccc4n3)ns2)cc1,-1.0,-0.6,4.3,9.5,0.783,11.8%,2.8
CCc1ccc(NC(=O)C2(C)Cc3ccccc3C(=O)O2)cc1 (stereo unspecified),0.6,-2.0,-0.5,-1.9,0.641,-4.7%,1.0
Cc1ccc(C(=O)N/C(=C\c2cccs2)C(=O)N2CCCCCC2)cc1,-0.1,-1.2,11.6,-4.3,0.79,-3.4%,6.8
Cc1ccccc1NS(=O)(=O)c1ccc(C(=O)N2CCC2)cc1,-0.6,3.2,-14.3,-0.7,0.634,1.4%,1.6
CC1(c2ccc(OC(F)F)cc2)NC(=O)N(CC(=O)Nc2cccc(S(N)(=O)=O)c2)C1=O (stereo unspecified),0.6,3.0,-11.0,-1.8,0.696,/,1.4
O=C(NCCCSc1ccccc1)c1cccnc1,0.3,2.3,-2.6,3.7,0.669,/,0.7
O=C(NCCNC(=O)c1ccccn1)c1ccc(F)cc1,0.3,-2.6,-8.9,0.9,0.689,-5.2%,3.5
Cc1ccnc2nc(C(=O)NCc3ccccc3)nn12,1.1,-2.9,-3.3,2.3,0.703,/,2.6
CCOc1ccccc1N1CCN(C(=O)CC(C)(C)C)CC1,-0.3,-3.8,0.0,0.7,0.673,-6.5%,1.8
CNc1c(N=Cc2cccnc2)c(=O)n(C)c(=O)n1C,0.3,-3.3,20.1,1.3,0.695,-3.3%,1.3
COc1ccc(C(=O)NC2CCN(Cc3c(F)cccc3Cl)CC2)cc1OC,2.5,-7.1,-3.1,-2.8,0.663,-3.0%,0.3
Cn1c(=O)c2cn(-c3ccccc3)cc2n(C)c1=O,0.6,-2.4,-27.2,1.9,0.746,8.9%,-1.6
O=C(O)c1cc(N2N=C(C(F)(F)F)/C(=C/C=C/c3ccco3)C2=O)ccc1Cl,/,/,1.8,-62.8,0.684,1.04µM*,21.3*
Oc1[nH]c2ccc(Br)cc2c1N=NC(=S)Nc1ccc(F)cc1,3.5,0.6,15.9,1.6,0.686,9.5%,1.8
CCOc1ncccc1C(=O)Nc1cc(S(=O)(=O)N2CCCCC2)ccc1Cl,-0.4,5.0,-8.4,-0.4,0.726,/,1.0
CC1(C)NC(C)(C)c2nonc2/C1=N\O,0.6,-0.4,-6.8,8.0,/,-4.9%,/
O=C(NC1CCN(CC(=O)N(c2ccccc2)c2ccccc2)CC1)c1ccc([N+](=O)[O-])cc1,0.1,-1.5,4.0,0.7,0.659,/,4.4
N#Cc1cccc(NC(=O)CNc2cc(S(=O)(=O)N3CCOCC3)ccc2N2CCCC2)c1,/,/,2.8,0.7,0.665,6.4%,3.3
CC1=NN(c2ccccc2)C(=O)C1N=Nc1ccc(N)cc1 (stereo unspecified),0.9,2.0,4.8,3.1,0.677,?,4.0
CCCc1cc(=O)n2[nH]c(NCc3c(Cl)cccc3Cl)nc2n1,-0.2,2.5,5.3,-0.5,0.682,1.9%,1.4
O=[N+]([O-])c1ccc2ccn(C3OCC(O)C(O)C3O)c2c1 (stereo unspecified),0.0,-1.5,-0.6,-0.8,0.666,3.6%,5.0
COC(=O)C1(C)COP(=O)(NC23CC4CC(CC(C4)C2)C3)OC1 (stereo unspecified),/,/,-0.5,0.4,/,-12.4%,/
CCOCCOC(=O)COc1ccc2c(-c3ccccc3)cc(=O)oc2c1,-0.3,/,6.8,-0.5,0.698,-3.1%,-0.2
O=C(C1CCCCC1)N1CCN(c2ccnc3cc(Cl)ccc23)CC1,0.4,-1.7,-7.0,3.6,0.637,?,6.8
CCOC(=O)C1CCN(S(=O)(=O)c2cc(Cl)c(C)cc2OC)CC1,-0.1,-4.6,1.3,-2.4,0.796,15.6%,3.5
COc1ccc(Cc2nnc(SCC(=O)c3ccc4c(c3)NC(=O)CO4)o2)cc1,-0.3,-1.6,1.8,2.3,0.692,-9.5%,5.2
Cc1ccccc1-n1c(SCc2cc(=O)n3ccccc3n2)nc2[nH]ncc2c1=O,0.3,1.3,-6.8,2.1,0.671,14.9%,-10.7
COc1cccc(C2C(C(=O)c3sc(C)nc3C)=C(O)C(=O)N2CCN2CCOCC2)c1 (stereo unspecified),-0.5,0.7,1.2,-1.5,0.695,15.8%,10.6
CCC(=Cc1ccccc1OC)c1ccncc1,/,/,-6.3,-3.5,0.683,-7.5%,2.1
CCN(CC)S(=O)(=O)c1ccc(NC(=O)Cn2cnc3ccccc3c2=O)cc1,1.2,3.2,-2.7,-1.0,0.696,1.3%,4.0
C=CCn1c(COc2ccc(Cl)cc2)nnc1SCC(=O)N1CC(=O)Nc2ccccc21,0.8,-3.9,-9.5,-0.7,0.721,4.3%,2.3
CN(C)S(=O)(=O)N1CCC(Oc2cccc(C(=O)NC3CCCCCC3)c2)CC1,-0.4,-2.1,12.0,2.9,0.67,/,0.8
O=C(COC(=O)c1cccc(Br)c1)NCCC1=CCCCC1,0.7,-1.0,-0.2,1.2,0.672,?,3.4

# No new results follow: entries from further up.
SMILES,A1 inh,LANA-H2A inh,Beta2AR agonist,HNF4A DNA FP,Ecoli growth,Vif A3G,UCH37 inh
O=C(NC1CCN(CC(=O)N(c2ccccc2)c2ccccc2)CC1)c1ccc([N+](=O)[O-])cc1,0.1,-1.5,4.0,0.7,0.659,/,4.4
N#Cc1cccc(NC(=O)CNc2cc(S(=O)(=O)N3CCOCC3)ccc2N2CCCC2)c1,/,/,2.8,0.7,0.665,6.4%,3.3
CC1=NN(c2ccccc2)C(=O)C1N=Nc1ccc(N)cc1 (stereo unspecified),0.9,2.0,4.8,3.1,0.677,?,4.0

# Next compounds.
SMILES,A1 inh,LANA-H2A inh,Beta2AR agonist,HNF4A DNA FP,Ecoli growth,Vif A3G,UCH37 inh
COc1ccc(-n2c(C)cc(C(=O)CSc3ccc(NC(C)=O)cc3)c2C)cc1,-0.9,-6.4,-1.2,1.2,0.731,5.7%,2.8
Cn1cnnc1Sc1ccc(C(=O)OCC(=O)Nc2cc(Cl)cc(Cl)c2)cc1[N+](=O)[O-],0.0,-2.0,12.8,-1.5,0.686,/,5.6
COc1cc(/C=C/C(=O)OCC(=O)Nc2ccc(C)cc2[N+](=O)[O-])ccc1O,1.1,5.1,-3.2,-2.4,/,8.1%,/
O=C(CCCCCn1nnc2ccccc2c1=O)N[C@H](C(=O)O)c1ccccc1,-1.1,3.4,1.6,3.1,0.742,-6.6%,2.0
COc1ccc(SC[C@H](CC(C)C)N2CCN(C)CCC2=O)cc1,-0.1,2.3,-3.2,-4.3,/,/,6.3
COc1ccc(NS(=O)(=O)c2cc(OCC(N)=O)c(C)cc2Cl)cc1,0.5,0.9,-3.2,2.1,0.699,-3.6%,1.3
O=[N+]([O-])c1cccc(NC2=NCCC2)c1,0.8,-2.8,4.3,-1.8,0.702,2.2%,5.9
CCCN(C(=O)C(C)Oc1cccc(Cl)c1)c1c(N)n(Cc2ccccc2)c(=O)[nH]c1=O (stereo unspecified),0.3,1.7,3.8,-1.8,/,-11.4%,/

# Bioassay records deposited in PubChem BioAssay by several laboratories.
